# Screening results (PubChem BioAssay)
# Rce1 inhib: inhibitors of yeast Ras-converting enzyme | Q03530 | yeast membranes, quenched prenylated peptide cleavage fluorescence | calls only | 290,000 tested, 0.27% active;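 active = fall in fluorescence gain of 50% or more versus controls, with final raw signal at or below 3038400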;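 also: plate controls were neutral control wells for no effect and wells lacking membranes for full effect; tested at 10 µM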
# Target sequence (Q03530 whole entry, looked up): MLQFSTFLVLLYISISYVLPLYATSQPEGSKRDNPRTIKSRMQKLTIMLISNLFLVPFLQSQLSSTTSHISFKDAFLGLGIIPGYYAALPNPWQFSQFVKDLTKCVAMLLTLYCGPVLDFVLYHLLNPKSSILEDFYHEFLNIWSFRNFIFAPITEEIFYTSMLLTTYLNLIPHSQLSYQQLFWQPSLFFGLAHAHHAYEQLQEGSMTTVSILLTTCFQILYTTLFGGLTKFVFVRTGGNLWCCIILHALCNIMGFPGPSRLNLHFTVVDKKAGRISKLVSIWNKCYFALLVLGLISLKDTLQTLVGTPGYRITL
# Env fusion inh: blocks HIV Env-driven cell-cell fusion; HeLa-JRFL Env/CEM21 cell fusion, luciferase; inhibition, % at 12.3 µM; 360,000 tested, 1.1% active; AID 651610;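 active = mean replicate inhibition score of at least 50 and every replicate individually at or above 50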;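 also: 0% = plate neutral controls and 100% = maraviroc near 300 nM; one replicate is shown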
# PABP polyA inh: blocks human PABP binding to poly(A) RNA; inhibition, % at 35 µM; P11940; 290,000 tested, 1% active; fluorescence polarization;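 active = 50% or more with normal probe brightness, or confirmed in later tests; about a fifth of its hits are not listed in these tables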;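 also: calls also rest on retests at 20 µM and on dose response follow-up; controls were probe without protein and protein plus probe with vehicle; some compounds called inactive have numbers as strong as hits; many hits fall short of the cut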
# MT1-MMP act inh: inhibitors of human MT1-MMP activation; P50281; HT1080 RFP-PRO-GFP cells, GFP/RFP ratio fluorescence, overnight; percent of plate control window, DMSO zero; GFP/RFP ratio change, % at 20 µM; 360,000 tested, 0.061% active; AID 651647;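 active = GFP/RFP ratio change of at least 30% with cell ATP level not reduced by more than half and red fluorescence within 50% of control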; also: strong numbers were not always called active
#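 Assay system: HT1080 RFP-PRO-GFP cells. Benchmarks: DMSO vehicle wells and RFP-L50D-GFP reporter cell wells. Times: overnight cell settling, then overnight compound exposure, 37 °C, 5% CO2. Compound: 20 µM single dose, 1% DMSO. Read-out basis: GFP/RFP fluorescence ratio.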
# CSC inhib: cancer stem cell inhibition; cancer stem cell-like cells viability, luminescence; inhibition, % at 7.5 µM; 300,000 tested, 1.1% active;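 active = mean at 75% or more and at least half the replicates too; tested in HMLE shEcad cells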;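 also: 0% = median of negative and 100% = median of positive control wells; the first replicate is given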
# eIF4H inh: inhibitors of RNA binding by human eIF4H; AID 2012; Q15056; inhibition, % at 35 µM; eIF4H fluorescence polarization binding assay; 290,000 tested, 0.94% active;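 active = 50% or more with normal probe brightness, or confirmed in later tests; about a fifth of its hits are not listed in these tables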;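 also: calls also rest on retests at 20 µM and on dose response follow-up; 0% = protein and probe with vehicle and 100% = probe without protein; strong numbers were not always called active; many hits fall short of the cut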
# UUG fidelity: alters start codon recognition fidelity in yeast | 350,000 tested, 0.13% active | S. cerevisiae UUG-firefly luciferase reporter, luminescence/redox ratio | AID 602363 | activity score, % at 18.7 µM;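 active = replicate mean at a twofold rise or more, about +100% in these data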;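 also: firefly luciferase made from a UUG start codon reports start codon fidelity; reporter light over untreated wells divided by growth signal over untreated wells; some hits fall short of that in this replicate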
# MT1-MMP act inh RFP: recorded beside MT1-MMP act inh, whose call it bears; RFP signal change, %; measured here: RFP expression control read;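 0 = vehicle wells; hits needed this value within 50% of zero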
# Active calls of the source: *; i = inactive; nt = not tested or not shown. These rows are one share of the data, so the mix of outcomes need not match the whole.
SMILES,Rce1 inhib,Env fusion inh,PABP polyA inh,MT1-MMP act inh,MT1-MMP act inh RFP,CSC inhib,eIF4H inh,UUG fidelity
Cc1c(N/C(=N/S(=O)(=O)c2ccc(F)cc2)c2ccccc2)c(=O)n(-c2ccccc2)n1C,i,2,0,-2,2,0,0,nt
Cc1ccc(C(=O)Nc2cccc(C(F)(F)F)c2)cc1NC(=O)c1[nH]cnc1C(N)=O,nt,6,nt,12,6,-23,nt,-14
O=S(=O)(c1cccc2ccccc12)N1CCC2CC1c1cc(-c3ccc4c(c3)OCO4)ccc12 (configuration not stated),nt,-4,nt,3,-8,nt,nt,-12
CN1CCN(NC(=O)c2ccc(Cl)cc2Cl)CC1,i,nt,13,2,5,-4,4,nt
Cc1cc(C)c(S(=O)(=O)N2CCCCC2)c(C)c1N(C)S(=O)(=O)c1ccccc1,i,nt,-3,2,-10,25,-6,-5
C=CCOc1ccc(CNc2nccs2)cc1,i,nt,5,-2,1,0,-6,-31
Cc1ccc(NC(=O)c2ccc(Cn3cc(Cl)cn3)o2)c(C)c1,nt,-3,-10,-5,-3,-12,1,9
COc1ccc(/C=C2/SC(=S)N(Cc3ccccc3)C2=O)cc1O,i,12,7,7,1,25,2,-8
O=C(NCCN1C(=O)S/C(=C\c2ccccc2Cl)C1=O)C1=COCCO1,i,-3,nt,-4,-9,39,nt,-18
Cc1cc(Br)ccc1NC(=O)C(C)c1ccc([N+](=O)[O-])cc1 (configuration not stated),i,14,13,4,4,7,-7,nt
OC(CNCC1COc2ccccc2O1)COCc1cccs1 (configuration not stated),i,10,8,2,2,nt,11,-5
CCC(C)NC(=O)c1cnn2c1NC(c1ccc3c(c1)OCO3)CC2C(F)(F)F (configuration not stated),i,-31,-7,3,4,-2,-10,9
S=C(NCc1ccccc1)N1CCCCC1,i,26,4,6,-3,-9,1,nt
CC(=O)OCCC(NS(=O)(=O)OCC(Cl)(Cl)Cl)c1ccccc1 (configuration not stated),i,9,10,0,-1,2,-12,-21
COCCCNC(=S)NC(=O)c1ccc(C)cc1,i,-32,-8,3,4,-13,-9,nt

# Going on with the list:
SMILES,Rce1 inhib,Env fusion inh,PABP polyA inh,MT1-MMP act inh,MT1-MMP act inh RFP,CSC inhib,eIF4H inh,UUG fidelity
O=C(Nc1ccc(NC(=O)C2CC2)nc1)c1ccccc1F,i,-1,2,-1,3,-3,-1,-16
Cc1ccc2[nH]c(=O)c(CN(CC3CCCO3)C(=O)c3ccncc3)cc2c1 (configuration not stated),i,nt,3,4,3,-2,-3,-10
O=C(Nc1ccc2oc(-c3ccccc3)nc2c1)c1ccc2c(c1)OCCO2,nt,-33,-6,13,-9,51,0,-11
Cn1nnnc1Sc1ncnc2scc(-c3cc4ccccc4o3)c12,nt,nt,nt,0,-12,115*,nt,-21
CC(C)(C)OC(=O)C[C@H]1C/C=C\C[C@H](CC(=O)N[C@H](CO)Cc2ccccc2)C(=O)N[C@@H](Cc2ccccc2)COC1=O,nt,-10,nt,1,-1,nt,nt,-9
Cc1cc(C)cc(-n2c(=O)c3sccc3n(CC(=O)NCc3ccco3)c2=O)c1,i,nt,-5,-1,-1,nt,-7,-4
O=C(O)c1ccc2c(c1)N(Cc1cccc(F)c1)C(=O)CS2,i,1,0,3,1,-8,4,-16
CC(=O)Nc1ccc(C(=O)Nc2cc(S(=O)(=O)N3CCOCC3)ccc2N2CCOCC2)cc1,nt,-4,nt,-4,2,nt,nt,-9
CCOC(=O)c1c(-c2ccc(OC)cc2)csc1NC(=O)COc1ccc2c(C)cc(=O)oc2c1,i,4,11,4,5,12,0,10
COc1ccc(NC(=O)C2CC(=O)n3cnnc3S2)cc1 (configuration not stated),i,-21,0,6,7,0,-16,-17
CCCC(=O)OCC(=O)NCc1ccc(Cl)cc1,i,-2,-6,1,2,-1,-5,nt
COc1ccc(N2CCN(C(=O)c3ccc4c(c3)CCN4S(=O)(=O)c3ccccc3)CC2)cc1,i,5,4,3,-3,-4,2,-1
CCn1cc(C(=O)N(C)c2ccc(OC)cc2)c2cc(OC)c(OC)cc2c1=O,i,24,2,-4,-5,5,2,-4
CC1CCc2c(C(=O)Nc3ccc(N4CCOCC4)cc3)csc2C1 (configuration not stated),i,0,1,1,-1,46,-6,nt
O=C(NCC(=O)N1CCc2ccccc2C1)c1ccc(Cl)cc1Cl,i,-12,2,5,3,-5,-9,0

# (next part)
SMILES,Rce1 inhib,Env fusion inh,PABP polyA inh,MT1-MMP act inh,MT1-MMP act inh RFP,CSC inhib,eIF4H inh,UUG fidelity
Cc1cc(C)c(NC(=O)CN(C)C(=O)CNC(=O)c2cccs2)c(C)c1,nt,-3,nt,0,3,-17,nt,-2
COc1ccc(N2C(=O)CC(SCC(=O)O)C2=O)cc1 (configuration not stated),i,-92,-3,-4,3,-5,-6,-11
CCOC(=O)CSc1nc2c(sc3ccc([N+](=O)[O-])cc32)c(=O)n1Cc1ccco1,i,-12,-9,1,-5,6,2,-12
O=C1CN(C(=O)CSc2nnc(C3CC3)n2-c2ccccc2)c2ccccc2N1,i,-1,-9,-1,7,-13,2,-31
Cc1ccc(/C=N/NC(=O)C2CCN(Cc3ccc(F)cc3Cl)CC2)o1,i,nt,2,-9,-3,nt,10,9
O=C(Nc1cccnc1)c1cccc(S(=O)(=O)N2CCc3ccccc32)c1,i,19,0,1,-15,-10,-1,nt
CCOc1cc(C(N)=O)cc(Cl)c1OCc1ccccc1,i,-4,-15,3,0,0,-2,-5
COc1ccc2nc(C)c3c(c2c1)OC(C(C)(Cl)Br)C3 (configuration not stated),i,-10,-3,4,-6,14,2,-15
O=C(N/N=C/c1ccc(O)cc1)/C(=C/c1ccc([N+](=O)[O-])cc1)NC(=O)c1ccccc1,i,-12,-5,7,0,-17,3,-15
O=C(Nc1nccs1)[C@@H]1CC=C[C@@H]2CCN(Cc3ccccc3)C(=O)[C@@H]21,i,-9,nt,0,0,-4,nt,-8
Cc1ccc(S(=O)(=O)N2CCCCC2)cc1NC(=O)COC(=O)Cc1ccc(Cl)cc1,i,27,0,4,4,-1,0,nt
O=[N+]([O-])c1ccc2cc[nH]c2c1,nt,-6,nt,0,3,nt,nt,-17
CC(C)C(=O)Nc1ccc(S(=O)(=O)Nc2nccc(/C=C/c3ccccc3)n2)cc1,i,-5,10,5,0,-7,3,3
O=c1c2ccccc2nc2c3ccccc3c(NCc3ccccn3)nn12,i,4,-10,6,1,-13,14,-1
CCc1ccc(C(=O)NN=C2CCCCCC2)s1,i,-5,-10,-3,0,7,11,-14

# (cont.)
SMILES,Rce1 inhib,Env fusion inh,PABP polyA inh,MT1-MMP act inh,MT1-MMP act inh RFP,CSC inhib,eIF4H inh,UUG fidelity
COc1cccc(NC(=O)NCCc2ccc(Cl)cc2)c1,i,-3,3,-3,-6,1,8,-9
O=C(/C=C/c1c(Cl)cccc1Cl)N1CCOCC1,i,-54,2,8,8,nt,4,8
C/C(=C\C(=O)c1cccnc1)Nc1ccc(O)cc1,i,-34,10,12,9,1,18,-31
O=C(Nc1cc(Cl)cc(Cl)c1)c1cccnc1,i,-97,10,-2,0,-4,4,-11
O=[N+]([O-])c1ccccc1S(=O)(=O)N1CCN(Cc2ccsc2)CC1,i,35,-11,1,1,-4,-3,4
O=C(c1cc2ccccc2c(=O)o1)N1CCCc2ccccc21,i,nt,1,2,1,-7,-11,nt
Cc1ccc(-c2nnc3ccc(SC(C)C(=O)O)nn23)cc1 (configuration not stated),i,18,21,1,4,-8,-8,-1
CCOC(=O)C1(Nc2nccs2)Sc2ccccc2NC1=O (configuration not stated),i,-301,5,-4,-15,52,-8,12
CCCCNC(=O)C1CCN(Cc2ccccn2)CC1,i,20,11,0,5,-15,6,-21
Cc1ccc(CC2CC(=O)N(C(Cc3ccccc3)C(=O)O)C2=O)cc1 (configuration not stated),i,-3,10,1,3,nt,-4,nt
COc1ccc(/C=N\NC(=O)c2cc3c(ccc4ccccc43)o2)cc1O,i,43,-6,-9,-8,41,-8,1
C(=C\c1ccccc1)/CN1CCN(C(CCc2ccccc2)c2nnnn2C2CCCCC2)CC1 (configuration not stated),nt,32,nt,-4,-15,nt,nt,9
Cc1c(O)ccc(C(=O)CN2CCN(c3ccccc3F)CC2)c1O,i,nt,2,-3,-4,-5,-13,5
CCN(CC)Cc1ccccn1,i,7,4,1,2,-3,3,nt
COCCCNC1=C(C#N)C(=O)NC2(CCCC2)S1,nt,7,nt,-4,-2,nt,nt,-7

# (continued)
SMILES,Rce1 inhib,Env fusion inh,PABP polyA inh,MT1-MMP act inh,MT1-MMP act inh RFP,CSC inhib,eIF4H inh,UUG fidelity
CCCOc1ccc(C(=O)N2CCN(Cc3ccc4c(c3)OCO4)CC2)cc1,i,28,6,0,-10,-7,-3,-13
O=C(Nc1ccccc1N1CCOCC1)c1cccc(NS(=O)(=O)c2ccc(F)c(F)c2)c1,i,13,-8,-4,-4,6,-5,0
Cc1ccc(Nc2nc(N)nc(CN3CCN(Cc4ccc5c(c4)OCO5)CC3)n2)cc1C,i,-3,-8,-6,0,nt,-8,nt
CCc1cc2cccc(C)c2nc1SCC(=O)NNC(=O)c1ccco1,i,nt,-1,-1,1,-7,-6,-10
CCN(CC)C(=O)C1CCCN(Cc2nc(-c3cnccn3)no2)C1 (configuration not stated),i,-16,0,-3,1,-9,1,-6
O=C(CCS(=O)(=O)c1ccc(Br)s1)N1CCc2ccccc21,i,-10,8,-8,-7,-4,6,nt
Cc1ccc(N(C(C)C(=O)Nc2ccc3c(c2)OCO3)S(C)(=O)=O)cc1 (configuration not stated),i,nt,20,4,0,-6,21,-18
O=C(NC(=S)NCc1nc2ccccc2[nH]1)c1ccccc1F,nt,-4,-7,1,2,11,5,nt
CCOC(=O)c1ccc(CS(=O)c2ccc(Cl)cc2)o1 (configuration not stated),i,nt,-3,3,2,nt,11,-6
Cc1noc(C)c1C(=O)Nc1nc2ccccc2s1,nt,-97,nt,2,-5,nt,nt,-4
Fc1ccc(NC(=S)NC2CCN(Cc3ccccc3)CC2)cc1,i,2,-1,0,3,nt,-3,nt
Cc1cc([N+](=O)[O-])ccc1NC(=O)CN1CCN(Cc2ccccc2)CC1,i,15,5,-1,-5,-3,0,-22
CCOC(=O)c1cc(NC(=O)c2cccnc2)ccc1N1CCOCC1,i,6,1,0,1,-7,3,nt
O=C1Nc2cc(Cl)c(Cl)cc2N(O)N1c1ccc(Cl)c(Cl)c1,i,nt,11,3,3,7,-3,-11
Cc1ccc(C(=O)Cc2ccccc2)o1,i,-2,nt,-1,2,-6,nt,-15

# More entries
SMILES,Rce1 inhib,Env fusion inh,PABP polyA inh,MT1-MMP act inh,MT1-MMP act inh RFP,CSC inhib,eIF4H inh,UUG fidelity
COC(=O)C(C)Sc1ncnc2c1c(-c1ccccc1)cn2-c1ccc(OC)cc1 (configuration not stated),i,10,0,-3,0,-1,-1,0
CCOc1cc(NS(=O)(=O)c2ccccc2)c(OCC)cc1NC(=O)c1ccco1,i,-5,18,2,3,-10,6,-13
CCOc1ccc(NS(=O)(=O)c2ccc(C(=O)N3CCN(C(C)=O)CC3)cc2)cc1,i,3,-18,-1,-2,nt,-10,-11
COc1ccc(CNC(=O)C(C)n2ccc3cc(S(=O)(=O)N4CCCCCC4)ccc32)cc1 (configuration not stated),i,1,0,1,-13,11,-6,-14
CCn1c(SCC(=O)N/N=C/c2ccccc2OCC(=O)O)nnc1-c1ccc(OC)cc1,i,0,2,3,3,11,31,nt
COCCn1c(SCC(=O)N2CC(=O)Nc3ccccc32)nnc1-c1ccoc1C,i,-51,-15,5,11,-12,1,-16
COc1ccccc1N(CC(=O)Nc1cc(S(=O)(=O)N(C)C)ccc1C)S(=O)(=O)c1cccs1,nt,9,nt,0,-6,-4,nt,6
N/C(=N\OC(=O)COc1ccc2ccccc2c1)c1ccccn1,i,-21,4,10,-6,14,-6,-18
COc1ccc(S(=O)(=O)NC2CCN(Cc3ccccc3)CC2)cc1NC(C)=O,nt,-23,nt,-2,6,-5,nt,nt
